# High-throughput results from PubChem.
# Vaccinia stage = blocks a specific stage of Vaccinia orthopoxvirus infection, primary screen, cell-based, single point; activity change (mCherry), % (concentration not given with the values); hit rate 0.01% among 89,000; Vaccinia-infected cells, mCherry/Venus stage reporter fluorescence; active compounds read low; some inactives read as strong as hits;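 active = mCherry past -33% and 40 or more points under the early reporter, replicates agreeing; inconclusive = past -33% without that gap or agreement; tested in A549 cells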;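 note: scaled between vehicle wells and reference inhibitor wells; 23 nL library stock went into each well; one replicate is shown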
# Vaccinia stage Venus = second read-out of Vaccinia stage, no call of its own (marks repeat the call); activity change (Venus), %; measured here: Venus reporter, other viral stage;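 negative = less Venus signal; first of two replicates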
# Numbers without * were called inactive; ? = inconclusive; . = no result given; & = joins results of further samples. This is a subset. The share of hits here may be higher or lower than overall.
# Fields: Vaccinia stage	Vaccinia stage Venus
1: CN1c2ccc(-c3cccc(C#N)c3)cc2[C@@H]2[C@@H](CCN2C(=O)CN2CCOCC2)[C@@H]1CO
    1	7
2: NCC[C@@H]1CC[C@@H](NS(=O)(=O)c2ccc(Cl)cc2)[C@H](CO)O1
    4	10
3: Cc1ccc(S(=O)(=O)Nc2ccc3c(c2)CC(=O)N([C@H](C)CO)C[C@H](C)[C@@H](CN(C)S(=O)(=O)c2cn(C)cn2)O3)cc1
    0	8
4: N#C[C@@H]1[C@H](c2ccccc2)[C@@H](CO)N1C(=O)c1ccccc1F
    9	13
5: CCNC(=O)C[C@H]1C=C[C@H](NS(=O)(=O)c2ccc(C)cc2)[C@@H](CO)O1
    12	14
6: Cc1noc(C)c1NC(=O)Nc1ccc2c(c1)CC(=O)N([C@H](C)CO)C[C@H](C)[C@H](CN(C)C(=O)NC1CCCCC1)O2
    3	-4
7: Cc1noc(C)c1S(=O)(=O)Nc1ccc2c(c1)CC(=O)N([C@@H](C)CO)C[C@H](C)[C@H](CN(C)S(=O)(=O)c1ccc(F)cc1)O2
    9	1
8: C[C@@H]1CN([C@@H](C)CO)C(=O)Cc2cc(NC(=O)c3ccncc3)ccc2O[C@@H]1CN(C)C(=O)NC1CCCCC1
    18	11
9: CN(C)CC(=O)N[C@H]1CC[C@H](CCn2cc(C3CC3)nn2)O[C@@H]1CO
    2	5
10: CCC(=O)N1[C@H](C(=O)N2CCCCC2)[C@@H](CO)[C@@H]2Cn3c(cccc3=O)[C@@H]21
    8	5
11: CN1[C@H](C(=O)NC2CCCCC2)[C@@H](CO)[C@@H]2Cn3c(ccc(/C=C/c4ccccc4)c3=O)[C@@H]21
    6	11
12: COc1ccc(CNC(=O)C[C@@H]2C[C@@H]3c4cc(NC(=O)NC5CCCC5)ccc4O[C@@H]3[C@@H](CO)O2)cc1
    3	9
13: OC[C@H]1[C@@H](c2ccc(C#CC3CC3)cc2)[C@H]2CN(CCC(F)(F)F)CCCCN21
    ?	.
14: COc1ccc(S(=O)(=O)Nc2ccc3c(c2)CC(=O)N([C@@H](C)CO)C[C@H](C)[C@@H](CN(C)Cc2ccc(C(=O)Nc4ccccc4N)cc2)O3)cc1
    10	4
15: O=C(N[C@H]1CC[C@H](CCn2cc(-c3ccccc3)nn2)O[C@H]1CO)c1cnccn1
    -14	-14
16: C/C=C/c1ccc([C@H]2[C@@H](CNC(=O)NC(C)C)N(C(=O)C3CC3)[C@H]2CO)cc1
    -23	-17
17: COC(=O)C[C@@H]1C[C@@H]2c3cc(NC(=O)c4ccc5c(c4)OCO5)ccc3O[C@@H]2[C@H](CO)O1
    10	12
18: C/C=C/c1ccc([C@H]2[C@@H](CO)N[C@@H]2CNC(=O)C2CCC2)cc1
    -19	-12
19: C[C@H](CO)N1C[C@H](C)[C@H](CN(C)Cc2ccncc2)Oc2ncc(C#CC(C)(C)O)cc2C1=O
    14	13
20: COc1ccc(S(=O)(=O)N(C)C[C@H]2Oc3ccc(NC(=O)C4CCCCC4)cc3CC(=O)N([C@H](C)CO)C[C@@H]2C)cc1
    -31	-23

# In the list so far, 2 have a cyano group.
# Fields: Vaccinia stage	Vaccinia stage Venus
1: CN1c2ccc(-c3cccc(C#N)c3)cc2[C@@H]2[C@@H](CCN2C(=O)CN2CCOCC2)[C@@H]1CO
    1	7
4: N#C[C@@H]1[C@H](c2ccccc2)[C@@H](CO)N1C(=O)c1ccccc1F
    9	13

# (more compounds)
# Fields: Vaccinia stage	Vaccinia stage Venus
21: CO[C@H]1CN(C)C(=O)c2ccc(NC(=O)Nc3ccccc3)cc2OC[C@H](C)N(C(=O)Nc2c(C)noc2C)C[C@@H]1C
    13	15
22: CC(C)NC(=O)N(C)C[C@@H]1Oc2cc(C3=CCCCC3)ccc2S(=O)(=O)N([C@@H](C)CO)C[C@@H]1C
    ?	.
23: C[C@@H]1CN([C@H](C)CO)C(=O)c2cc(C#CCN(C)C)cnc2O[C@@H]1CN(C)C(=O)CCN1CCCCC1
    24	3
24: CCCC#Cc1ccc2c(c1)O[C@H](CN(C)C(=O)CC1CC1)[C@H](C)CN([C@@H](C)CO)S2(=O)=O
    6&-22	-8&-21
25: CO[C@H]1CN(C)C(=O)c2cc(NC(=O)C3CCCCC3)ccc2OC[C@@H](C)NC[C@H]1C
    -1	5
26: C[C@@H]1CCCCO[C@@H](CN(C)C(=O)c2ccccc2)[C@@H](C)CN([C@H](C)CO)C(=O)c2cc(NC(=O)Nc3cccc4ccccc34)ccc2O1
    11	4
27: CNC[C@@H]1Oc2c(NS(=O)(=O)c3c(C)noc3C)cccc2C(=O)N([C@H](C)CO)C[C@@H]1C
    2	5
28: COc1ccc(NC(=O)N(C)C[C@H]2Oc3ccc(N(C)C)cc3CC(=O)N([C@@H](C)CO)C[C@@H]2C)cc1
    29	12
29: CO[C@@H]1CN(C)C(=O)c2cc(NS(C)(=O)=O)ccc2OC[C@H](C)N(C(=O)CC2CC2)C[C@@H]1C
    27	16
30: C[C@@H]1CN([C@@H](C)CO)S(=O)(=O)c2ccc(C#Cc3ccccc3)cc2O[C@H]1CN(C)C(=O)Nc1ccccc1
    -28	-14
31: C[C@@H]1CN([C@H](C)CO)C(=O)c2cc(-c3cccnc3)cnc2O[C@H]1CN(C)C(=O)C1CCC1
    21	18
32: CNC[C@H]1Oc2cc(C#Cc3ccc(F)cc3)ccc2S(=O)(=O)N([C@H](C)CO)C[C@@H]1C
    ?	.
33: C[C@H](CO)N1C[C@H](C)[C@@H](CN(C)C(=O)c2cnccn2)Oc2cc(Br)ccc2S1(=O)=O
    -9&3	-7&1
34: C[C@H](CO)N1C[C@H](C)[C@H](CN(C)C(=O)NC2CCCCC2)OCCCC[C@H](C)Oc2ccc(NC(=O)NC3CCCCC3)cc2C1=O
    ?	.
35: CO[C@H]1CN(C)C(=O)c2ccc(NS(C)(=O)=O)cc2OC[C@@H](C)N(C(=O)C2CCOCC2)C[C@@H]1C
    7	3
36: C[C@@H]1CN([C@H](C)CO)C(=O)CCCn2cc(nn2)CO[C@H]1CN(C)S(=O)(=O)c1ccc(Oc2ccccc2)nc1
    4	-1
37: COc1cccc(-c2ccc3c(c2)[C@@H]2[C@@H](CCN2C(=O)CN2CCOCC2)[C@@H](CO)N3)c1
    -5	-3
38: O=C(Nc1ccccc1F)N1CCCCN2[C@H](CO)[C@H](c3ccc(/C=C/c4ccccc4)cc3)[C@@H]2C1
    2	-12
39: COCC(=O)Nc1ccc2c(c1)C(=O)N(C)C[C@H](OC)[C@H](C)CN(C(=O)c1ccccn1)[C@H](C)CO2
    1	0
40: CCS(=O)(=O)N1[C@H](C#N)[C@H](c2ccc(C#CCC3CCCC3)cc2)[C@@H]1CO
    ?	.

# (continued)
# Fields: Vaccinia stage	Vaccinia stage Venus
41: CCCc1cn(CC[C@@H]2CC[C@H](NS(=O)(=O)c3ccccc3Cl)[C@H](CO)O2)nn1
    -5	5
42: CC(C)NC(=O)N1[C@H](CNC(=O)CN(C)C)[C@@H](c2ccccc2)[C@@H]1CO
    11	20
43: C[C@H](CO)N1C[C@H](C)[C@@H](CN(C)S(C)(=O)=O)Oc2ccc(NC(=O)CCCN(C)C)cc2C1=O
    9	1
44: CCC(=O)N1[C@H](CO)[C@H](c2ccc(-c3ccccc3OC)cc2)[C@H]1CNC(C)=O
    12	9
45: C[C@@H]1CCCCO[C@@H](CN(C)Cc2ccncc2)[C@H](C)CN([C@@H](C)CO)C(=O)c2cc(NS(=O)(=O)c3ccccc3)ccc2O1
    12	3
46: COc1ccccc1-c1cn(CC[C@@H]2CC[C@@H](NC(=O)C3CC3)[C@H](CO)O2)nn1
    -3	1
47: C[C@H]1CN([C@@H](C)CO)C(=O)c2cccc(NC(=O)c3nc4ccccc4s3)c2O[C@@H]1CN(C)C(=O)Nc1ccc(F)cc1
    8	6
48: C=CCN1Cc2ccccc2[C@H]2OC(c3ccc(OCCCO)cc3)=N[C@@]2(CCS(=O)(=O)c2ccccc2)C1=O
    2	-5
49: Cc1cc(C(=O)Nc2cccc3c2O[C@@H](CN(C)C(=O)Nc2ccccc2)[C@H](C)CN([C@H](C)CO)C3=O)n(C)n1
    1	2
50: C[C@H](CO)N1C[C@H](C)[C@H](CN(C)C(=O)Nc2ccc(N3CCCCC3)cc2)OCc2cnnn2CCCC1=O
    13&14	12&12
51: C#CCNC(=O)C1=C[C@H](C2CCCCC2)[C@@H](CCCO)[C@H](OCC)O1
    6	4
52: C[C@@H]1CN([C@@H](C)CO)C(=O)c2cccc(NC(=O)c3nc4ccccc4s3)c2O[C@H]1CN(C)Cc1ccc(C(=O)O)cc1
    7	8
53: C[C@@H]1CN([C@@H](C)CO)C(=O)c2cc(NS(=O)(=O)c3ccccc3)ccc2O[C@@H]1CN(C)C(=O)Nc1cccc2ccccc12
    18	23
54: Fc1cccc(CN2C[C@@H]3N[C@H](C2)C3c2ccc(-c3ccccc3)cc2)c1 (stereo not given in full)
    ?	-17
55: Cn1cnc(S(=O)(=O)N2C[C@H](O)COC[C@H]3O[C@H](CC(=O)N4CCN(c5ccccc5)CC4)CC[C@@H]32)c1
    1	-2
56: O=C(CC1CC1)Nc1ccc2c(c1)[C@H]1C[C@H](CC(=O)N3CCc4ccccc4C3)O[C@H](CO)[C@H]1O2
    -6	0
57: Cc1ccc(S(=O)(=O)N[C@H]2C=C[C@@H](CC(=O)O)O[C@H]2CO)cc1
    4	7
58: C[C@H](CO)N1C[C@H](C)[C@H](CN(C)C(=O)Nc2ccc(F)cc2)Oc2ccc(NC(=O)CCN3CCOCC3)cc2C1=O
    11	8
59: C[C@H](CO)N1C[C@H](C)[C@H](CN(C)C(=O)Nc2ccc3c(c2)OCO3)Oc2c(NC(=O)c3ccc(-c4nccs4)cc3)cccc2C1=O
    1	4
60: CCCNC(=O)C[C@H]1CC[C@H]2[C@@H](COc3ccc(NC(=O)NCC)cc3C(=O)N2C)O1
    6	0

# Part of the list above, with one line to a screen:
57. Cc1ccc(S(=O)(=O)N[C@H]2C=C[C@@H](CC(=O)O)O[C@H]2CO)cc1
60. CCCNC(=O)C[C@H]1CC[C@H]2[C@@H](COc3ccc(NC(=O)NCC)cc3C(=O)N2C)O1

compound no.	57	60
Vaccinia stage	4	6
Vaccinia stage Venus	7	0

# Complete entries, quoted from the list. Order of screens: Vaccinia stage, Vaccinia stage Venus
# `Cc1cc(C(=O)Nc2cccc3c2O[C@@H](CN(C)C(=O)Nc2ccccc2)[C@H](C)CN([C@H](C)CO)C3=O)n(C)n1` in the list: 1, 2
# `C[C@H]1CN([C@@H](C)CO)C(=O)c2cccc(NC(=O)c3nc4ccccc4s3)c2O[C@@H]1CN(C)C(=O)Nc1ccc(F)cc1` in the list: 8, 6
# `C=CCN1Cc2ccccc2[C@H]2OC(c3ccc(OCCCO)cc3)=N[C@@]2(CCS(=O)(=O)c2ccccc2)C1=O` in the list: 2, -5
# `C[C@H](CO)N1C[C@H](C)[C@H](CN(C)C(=O)Nc2ccc(N3CCCCC3)cc2)OCc2cnnn2CCCC1=O` in the list: 13&14, 12&12

# New compounds follow.
# Fields: Vaccinia stage	Vaccinia stage Venus
61: C[C@H]1CN([C@@H](C)CO)C(=O)c2cccc(NC(=O)Nc3ccc4c(c3)OCO4)c2O[C@@H]1CN(C)Cc1ccc(Cl)c(Cl)c1
    ?	.
62: COc1cccc(NC(=O)N2CC(=O)N3[C@H](C2)[C@H](c2ccc(C4=CCCC4)cc2)[C@@H]3CO)c1
    -18	-12
63: O=C(C[C@@H]1CC[C@@H]2[C@H](COC[C@H](O)CN2Cc2cccc(F)c2)O1)NCc1cccc(F)c1
    -17	-14
64: Cc1noc(C)c1NC(=O)Nc1ccc2c(c1)CC(=O)N([C@H](C)CO)C[C@H](C)[C@@H](CN(C)S(=O)(=O)c1ccc(Cl)cc1)O2
    15	4
